Bioassay records (PubChem)
AmpC inh no det – inhibitors of E. coli AmpC beta-lactamase without detergent; Potency, µM (titrated, usually from 28.7 µM), for the others: top-dose activity change, negative = inhibition; 71,000 compounds, 1.8% hits; AmpC nitrocefin hydrolysis, absorbance 480 nm, no detergent; potencies from a single point are estimates; P00811; active = falling curve, for most hits resting on a single point; inconclusive = weak or doubtful change; inactive = flat or rising curve; also: % of control where 0% means no effect; about half of the hits show no inhibition at the top dose; a quarter of the inactives give rising signals
Target sequence (P00811 whole entry, looked up): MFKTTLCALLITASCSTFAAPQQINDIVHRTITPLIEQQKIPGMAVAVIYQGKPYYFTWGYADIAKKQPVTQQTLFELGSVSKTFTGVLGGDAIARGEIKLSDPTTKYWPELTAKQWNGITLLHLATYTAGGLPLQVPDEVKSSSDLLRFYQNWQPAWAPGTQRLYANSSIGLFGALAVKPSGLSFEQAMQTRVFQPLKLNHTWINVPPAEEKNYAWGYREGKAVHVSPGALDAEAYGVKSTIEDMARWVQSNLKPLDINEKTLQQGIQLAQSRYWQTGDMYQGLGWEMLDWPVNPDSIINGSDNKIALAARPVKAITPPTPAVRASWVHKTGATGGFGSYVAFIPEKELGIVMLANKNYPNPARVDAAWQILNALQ
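AmpC, 20 mM phosphate pH 7.0; 15 min cpd preinc, RT; start with nitrocefin (800 uM stock); A480 kinetic read, 20 s intervals, 4 min. No-enzyme wells = negative control.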
Numbers without * were called inactive; ? = inconclusive; [ ] = another dose, or the depositor's remark. Potency is read from the fitted curve at half-maximal effect. Not all compounds are listed; count on the stated rates, not on these rows.

SMILES	AmpC inh no det
O=C(NCc1nc2ccccc2[nH]1)c1cc2ccccc2oc1=O	-4%
O=C(Nc1ccc2c(c1)OCO2)C(c1ccccc1)N1CCC2(CC1)OCCO2 (stereo unspecified)	22%
CC(=O)Nc1ccc(S(=O)(=O)n2cnc(C)c2)cc1	1%
Cc1cccc(N2CC(c3nc4ccccc4n3C)CC2=O)c1C (stereo unspecified)	63%
COC(=O)c1ccc(C)c(NC(=O)CN2C(=O)c3ccccc3S2(=O)=O)c1	-8%
CCOC(=O)CSc1nc2c(c(=O)n(Cc3ccccc3Cl)c(=O)n2C)n1C	89%
Cc1ccc2nc(C3CCN(C(=O)NCc4ccccc4)CC3)[nH]c2c1	4%
COCC(=O)n1nc(-c2ccccc2)nc1NCc1ccc(F)cc1	14%
CCCCCC(N)=O	-2%
CCOC(=O)c1c(NC(=O)CSc2nnc(-c3ccco3)o2)sc(C(C)=O)c1C	43%
CCOc1cc(-c2nn3cnnc3s2)cc(OCC)c1OCC	30%
CCc1cc2c(=O)c(-c3nc4ccccc4[nH]3)coc2c(CN2CCC(C)CC2)c1O	6%
Cc1ccc(-c2cc(-c3ccccc3Cl)c(C#N)c(N)n2)o1	-4%
Cc1ccc(-c2nc(CS(=O)CC(=O)NCCCN3CC(C)CC(C)C3)c(C)o2)cc1 (stereo unspecified)	4µM*[single pt active]
O=C1C(=C2CCCCC2)SC(=S)N1Cc1ccco1	-21%
O=S1(=O)N(CCN2CC=C(c3c[nH]c4cc(F)ccc34)CC2)c2cccc3c2N1CCC3	8%
CCN(CC)CCOc1cc2c(nn1)Oc1ccccc1N2C	3%
CNC(=O)Oc1ccc2c(c1)[C@@]1(C)CCN(C)[C@@H]1N2C	4%
CCN(CC)CCNC(=O)c1cc(S(C)(=O)=O)ccc1OC	0%[12.8 µM]
Cc1cc2oc(=O)cc(CN3CCC(C)CC3)c2c(C)c1Cl	-14%
COc1ccc(NC(=O)Cn2nnc(-c3ccc(CN4CCOCC4)cc3)n2)c(OC)c1	64%
Cc1cn([C@H]2C=C[C@H](CO)O2)c(=O)[nH]c1=O	-1%
Cc1ccc(S(=O)(=O)N2CCC(C(=O)N[C@H](C(=O)NCC3CCCO3)C(C)C)CC2)cc1 (stereo partly specified)	59%
CC(C)(C)c1cc(Br)c(O)c(CN(Cc2cc(C(C)(C)C)cc(Br)c2O)C2CCCCC2)c1	-1%[5.75 µM]
O=c1[nH]n(-c2cccc3cccnc23)c(=O)c2ccccc12	3%

Going on with the list.
SMILES	AmpC inh no det
Cc1nc2c(C(=O)NCc3ccc(F)cc3)c[nH]n2c(=O)c1Cl	5%
O=C(CN1C(=O)c2ccccc2C1=O)Nc1ccc(S(=O)(=O)NCC2CCCO2)cc1 (stereo unspecified)	2%
CC(NS(=O)(=O)c1ccc(F)cc1)C(=O)NCc1ccncc1 (stereo unspecified)	-3%
Cc1cc(NS(=O)(=O)c2ccc(NC(=O)CCCOc3ccccc3)cc2)no1	-11%
CCOC(=O)c1ccc(NC(=O)N2CCN(S(C)(=O)=O)CC2)cc1	4%
CCN(CC)C(=O)CSc1nnc(-c2ccc(S(=O)(=O)NCc3ccccc3Cl)cc2)o1	22%
Cc1cccc(-c2noc(CCC(=O)Nc3ccccc3)n2)c1	-7%
Clc1ccc(OCc2nc(-c3ccncc3)no2)c(Cl)c1	66%
Cc1nc(-c2cnn(-c3ccccc3)c2)c2cc(C)oc2n1	92%
CC[C@@]1(O)C(=O)OCc2c1cc1n(c2=O)Cc2cc3ccccc3nc2-1	14%
O=P(O)(O)c1ccccc1OCCOCCOc1ccccc1P(=O)(O)O	-5%
CCOC(=O)C1=C(N)Oc2c(c(=O)oc3ccccc23)C12C(=O)N(C)c1ccccc12 (stereo unspecified)	55%
CC(C)(C)n1nc2c(c1NC(=O)c1ccc(S(=O)(=O)N3CCCCC3)cc1)CS(=O)C2 (stereo unspecified)	45%
Cc1nc2c(C)cccn2c1/C(O)=C1\C(=O)C(=O)N(CCN(C)C)C1c1ccncc1 (stereo unspecified)	-14%
COCCNC(=O)COc1ccc(C)c(C)c1	8%
Cc1noc(C)c1COc1ccc(C(=O)OC(C)C(=O)Nc2ccc(N3CCOCC3)cc2)cc1 (stereo unspecified)	122%
Cc1ccc(-n2ncc(C#N)c2/N=C/N2CCCCCC2)cc1	31%
N#Cc1ccccc1NC(=O)c1ccccc1OCC(=O)NCc1ccco1	6%
COc1cc(-c2nc(-c3cccc(C(F)(F)F)c3)no2)cc(OC)c1OC	73%
CC(C)(C)n1ncc2c(=O)n(CC(=O)Nc3ccc4c(c3)OCO4)cnc21	5%
COc1cc(S(=O)(=O)NCc2ccc3c(c2)OCO3)ccc1Cl	-14%
CCNC(=O)c1c(C)nc2ccccn12	-8%
CC(=O)Oc1c(S(=O)(=O)c2ccccc2)c(C)nn1C(C)(C)C	15%
OC[C@H]1CCCN2CCCC[C@@H]12	3%
Cc1ccc2oc(NC(=O)N3CCOCC3)cc(=O)c2c1	25%

Sorted by SMILES length (falling): part of the list above.
SMILES	AmpC inh no det
O=C(CN1C(=O)c2ccccc2C1=O)Nc1ccc(S(=O)(=O)NCC2CCCO2)cc1 (stereo unspecified)	2%
Cc1cc(NS(=O)(=O)c2ccc(NC(=O)CCCOc3ccccc3)cc2)no1	-11%
COc1cc(-c2nc(-c3cccc(C(F)(F)F)c3)no2)cc(OC)c1OC	73%

New compounds follow
SMILES	AmpC inh no det
CCN(CC)CCCNc1cc2n(c(=O)n1)CCc1cc(OC)c(OC)cc1-2	28%
CCOC(=O)c1c(NC(=O)c2ccc(Br)o2)sc2c1CCCC2	-2%
Cc1ccc(C)c(OCCCC(C)(C)C(=O)O)c1	-10%
O=C(NC(Nc1ncccn1)C(=O)c1ccccc1)c1ccccc1 (stereo unspecified)	-4%
N/N=C1/CC(=O)NC(=O)N1	6%[5.75 µM]
CC(C)Nc1ccc(Nc2ccccc2)cc1	23%
Cc1[nH]n(CCC#N)c(=O)c1CC(=O)N1CCN(c2ccccc2)CC1	80%
CCC(=O)Nc1ccc(C(=O)CSc2nnc(-c3cccnc3)o2)cc1	16%
O=C(NCCc1csc(-c2cccnc2)n1)c1cccs1	5%
CCOC(=O)c1nn(-c2ccccc2)c(=O)c(C#N)c1C	-9%
COc1ccc(Cn2nnc(C(=O)Nc3ccc(F)cc3)c2N)cc1	-5%
Cc1ccc(S(=O)(=O)N[C@@H](Cc2ccccc2)C(=O)CCl)cc1	7%
CCOC(=O)c1ccc(N2C(=O)CC(N3CCC(C(=O)OCC)CC3)C2=O)cc1 (stereo unspecified)	40%
CCOc1ccc(NC(=O)NCCN2C(C)CCCC2C)cc1 (stereo unspecified)	-10%
Clc1cnccn1	-4%[12.8 µM]
CC(C)C[C@@H](CC(=O)N[C@@H](CCCN)CC(=O)N[C@@H]1CCCC[C@H]1C(=O)N[C@H](CC(=O)N[C@@H](CCC(=O)O)CC(=O)O)Cc1c[nH]c2ccccc12)NC(=O)[C@@H]1CCCC[C@H]1N	169%
O=C(Cn1ncc2c3ccccc3n(Cc3ccccc3)c2c1=O)N1CCC2(CC1)OCCO2	155%
CCOC(=O)c1c(NC(=O)c2cccs2)sc2c1CCCC2	-4%
CC(C)CCn1c(Cl)nc2c1c(=O)n(C)c(=O)n2C	14%
CN(C)c1ccc(CN(C(=O)COc2ccccc2)C2CCS(=O)(=O)C2)cc1 (stereo unspecified)	52%
CCOC(=O)N1CCC(NC(=O)c2cc(C(=O)Nc3ccc(OC)c(OC)c3)ccc2CO)CC1	44%
CC(OC(=O)c1ccc2ccccc2n1)C(=O)Nc1ccc(N2CCOCC2)cc1 (stereo unspecified)	57%
O=C(Nc1ccccc1C(=O)N1CCOCC1)C1CCC(=O)N1C1CCCC1 (stereo unspecified)	-17%
Cc1ccc(C2C3=C(CCCC3=O)Nc3nc(SCC(=O)NCc4ccco4)[nH]c(=O)c32)cc1 (stereo unspecified)	-24%
Cc1cc(=O)oc2c1c(C)nn2-c1ccc(C(=O)OC(C)C)cc1	-9%

As entered above:
CNC(=O)Oc1ccc2c(c1)[C@@]1(C)CCN(C)[C@@H]1N2C – AmpC inh no det = 4%
Cc1ccc(S(=O)(=O)N2CCC(C(=O)N[C@H](C(=O)NCC3CCCO3)C(C)C)CC2)cc1 (stereo partly specified) – AmpC inh no det = 59%
CCN(CC)CCNC(=O)c1cc(S(C)(=O)=O)ccc1OC – AmpC inh no det = 0%[12.8 µM]
CC(C)(C)c1cc(Br)c(O)c(CN(Cc2cc(C(C)(C)C)cc(Br)c2O)C2CCCCC2)c1 – AmpC inh no det = -1%[5.75 µM]
Cc1cccc(N2CC(c3nc4ccccc4n3C)CC2=O)c1C (stereo unspecified) – AmpC inh no det = 63%
CCOc1cc(-c2nn3cnnc3s2)cc(OCC)c1OCC – AmpC inh no det = 30%
Cc1ccc(-c2nc(CS(=O)CC(=O)NCCCN3CC(C)CC(C)C3)c(C)o2)cc1 (stereo unspecified) – AmpC inh no det = 4µM*[single pt active]

More compounds follow.
SMILES	AmpC inh no det
OC(COCC1COc2ccccc2O1)CN1CCN(c2ccccn2)CC1 (stereo unspecified)	64%
O=C(NCCc1ccc(Cl)cc1)C1CCN(S(=O)(=O)N2CCCC2)CC1	37%
Cc1ccc(S(=O)(=O)NCCNC(=O)CN2CCCC2)cc1	-8%
COCC(C)NC(=O)c1ccc(Cl)c(Cl)c1 (stereo unspecified)	-6%
COC(=O)Nc1ccc2c(c1)N(C(=O)CCN1CCN3CCCC3C1)c1ccccc1S2 (stereo unspecified)	71%
CSc1sc(C)cc1C1C(C#N)=C(N)N(c2cccnc2)C2=C1C(=O)CCC2 (stereo unspecified)	45%
COc1ccc2c(c1)OC(O)(C(F)F)CC2=O (stereo unspecified)	-9%
Cc1ccc(-n2nnc3c(=O)n(CC(=O)NCc4ccco4)cnc32)cc1	-2%
O=C(CC12CC3CC(C1)CC(CC(=O)NC1=NCCS1)(C3)C2)NC1=NCCS1	-9%
Brc1ccc(-c2nn3c(Cc4ccccc4)nnc3s2)o1	6%
CCCNC(=O)Cn1cnc2sc(C(=O)N3CCCC(C(=O)OCC)C3)c(C)c2c1=O (stereo unspecified)	9%
Nc1ccn([C@@H]2CC[C@H](CO)O2)c(=O)n1	0%[12.8 µM]
COc1ccc(N(C)S(=O)(=O)c2c(C)[nH]c(=O)[nH]c2=O)c(OC)c1	4%
CCC(C)c1ccc(NC(=O)C2CC2)cc1 (stereo unspecified)	6%
COCC(=O)N1CCC2(CCCN(C(=O)Nc3cccc(F)c3)C2)CC1	11%
CCc1ccc(NC(=O)CS(=O)CC(=O)Nc2ccc(F)cc2F)cc1 (stereo unspecified)	?
O=C(Nc1ccc(F)cc1)c1ccc(S(=O)(=O)NCC2CCCO2)cc1 (stereo unspecified)	-3%
O=C(Cn1nnc(-c2ccc(CN3CCOCC3)cc2)n1)NC1CCCCC1	24%
CCCOc1ccc(C(=O)N2CCCC2)cc1OC	11%
COc1ccc(CCNC(=O)CN(C2CCCCC2)S(C)(=O)=O)cc1	30%
Cc1c(C(=O)OC(C)C)[nH]c2c1C(=O)CC(C)(C)C2	0%
COC(=O)c1ccc(Cn2cnc3c(cnn3-c3ccc(F)cc3)c2=O)o1	32%
O=C(O)CCC(=O)N1CCc2cc(S(=O)(=O)N3CCCCC3)ccc21	2%
Nc1ccc2ncccc2c1	-7%
CCOC(=O)N1CCN(c2nc(SC)nc3sc4c(c23)CC(C)(C)OC4)CC1	?

Going on with the list.
SMILES	AmpC inh no det
COc1ccc(OCC(=O)N2CCN(C(=O)c3cccs3)CC2)cc1	6%
N#Cc1ccc(Cn2c(=O)c(C#N)c3n(c2=O)CCC3)cc1	-7%
CCN1C(=O)C2(C(C#N)=C(N)Oc3c2c(C)nn3-c2ccccc2)c2ccccc21 (stereo unspecified)	60%
CC1CCN(C(=O)c2ccccc2NC(=O)c2cccc(S(=O)(=O)N3CCOCC3)c2)CC1	53%
CCCCSc1nc2c(cnn2-c2ccc(F)cc2)c(=O)[nH]1	-6%
CCN(CC)CCNC(=O)C1CCC(=O)N1CCc1ccccc1 (stereo unspecified)	-6%
CCOC(=O)/C=C1\SCC(=O)N1CC(=O)Nc1ccc2c(c1)CCC2	10%
Cc1cc(Nc2ccccc2)n(-c2nc3ccccc3[nH]2)n1	0%
Cc1ccc(C(=O)OC2CCOC2=O)cc1NC(=O)c1ccco1 (stereo unspecified)	-7%
CCOc1cc(NS(C)(=O)=O)c(OCC)cc1NC(=O)c1cccs1	37%
O=C(Cc1ccccc1)Nc1ccccc1CO	-4%
O=C(Cn1c(CN2CCCCC2)nc2ccccc2c1=O)NCc1ccco1	-3%
CCOC(=O)Cc1nnc2c(Nc3ccc(C)cc3)nc3nonc3n12	31%
CCOC(=O)C1CCCN(C/C(O)=C(\C#N)c2nc(-c3ccccc3)cs2)C1 (stereo unspecified)	30%
COc1cc(-c2nnc(-c3cccnc3)o2)cc(OC)c1OC	16%
O=C(CN(Cc1ccco1)C(=O)Cn1nnc(-c2ccc(F)cc2)n1)NC1CCCC1	34%
O=C(O)/C=C\C(=O)Nc1ccc2c(c1)-c1ccccc1C2	-9%[5.75 µM]
CC1CCc2nc(NC(=O)CN3CCN(c4ccccc4)CC3)sc2C1 (stereo unspecified)	3%

Looked up by compound from the list above (3):
SMILES	AmpC inh no det
COc1cc(-c2nnc(-c3cccnc3)o2)cc(OC)c1OC	16%
Cc1cc(Nc2ccccc2)n(-c2nc3ccccc3[nH]2)n1	0%
O=C(CN(Cc1ccco1)C(=O)Cn1nnc(-c2ccc(F)cc2)n1)NC1CCCC1	34%

Entries above that contain a COOH group:
SMILES	AmpC inh no det
Cc1ccc(C)c(OCCCC(C)(C)C(=O)O)c1	-10%
CC(C)C[C@@H](CC(=O)N[C@@H](CCCN)CC(=O)N[C@@H]1CCCC[C@H]1C(=O)N[C@H](CC(=O)N[C@@H](CCC(=O)O)CC(=O)O)Cc1c[nH]c2ccccc12)NC(=O)[C@@H]1CCCC[C@H]1N	169%
O=C(O)CCC(=O)N1CCc2cc(S(=O)(=O)N3CCCCC3)ccc21	2%
O=C(O)/C=C\C(=O)Nc1ccc2c(c1)-c1ccccc1C2	-9%[5.75 µM]
